# HSD17B inh: blocks hydroxysteroid 17-beta dehydrogenase activity; recombinant HSD17B10, NADH fluorescence kinetic; many of its hits are not listed in these tables; Potency, µM (series often up to 57.1 µM), for the others: at the highest dose activity change, negative = inhibition, actives largely listed as inhibitors; 7.6% of 75,000 active; active = well fitted inhibition curve with a large enough effect; inconclusive = small, poorly fitted or top-dose-only effect; inactive = no such curve, though single readings can be large or run the other way;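 note: the protocol describes HADH2 (HSD17B10) and not the HSD17B4 of the title; nearly all actives have a fitted effect of over 70% in size; most hits overshoot -100% by far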
#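 His-tagged E. coli-expressed HADH2 at 20 nM in 100 mM Tris-HCl pH 9.0 with 0.01 % Tween-20, preincubated 15 min with compound at room temperature. Reaction with 1 mM NAD+ and 90 uM beta-hydroxybutyryl coenzyme A; NADH fluorescence (360/450 nm) read kinetically over 4 min, last minus first point.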
# Numbers without * were called inactive; ? = inconclusive; & = joins results of further samples; [ ] = dose if it differs, or a comment. % is set by controls: 0 for no effect and ±100 for the full control effect; potency is the fitted concentration of half-maximal effect. An excerpt (hit frequency here may not be typical).
item	compound	HSD17B inh
1	Cc1cccc(-n2c(O)c(C=NCc3cccnc3)c(=O)[nH]c2=O)c1C	0%
2	Cc1ccnc(-n2c(-c3ccco3)nc3ccccc3c2=O)c1	-2%
3	COC(=O)[C@@H]1C[C@H]1[C@@H](NP(=O)(c1ccccc1)c1ccccc1)c1ccccc1	4%
4	Brc1ccc(Oc2ccc(Br)cc2Br)c(Br)c1	6%
5	O=CC=O	4%
6	COC(=O)[C@H]1C[C@H]2CC[C@H](O)C[C@H]2N1CC1CC1	-4%
7	O=C1c2ccccc2C(=O)N1Cc1nc2ccccc2c(=O)n1-c1ccc(Br)cn1	-5%
8	c1ccc(CCn2nnnc2CN2CCC(n3nnc4ccccc43)CC2)cc1	12%
9	C=CCN1C(=O)CSc2ccc(C(=O)N3CCC4(CC3)OCCO4)cc21	-7%
10	N#CC(O[C@@H]1OC(COC2OC(CO)C(O)C(O)[C@@H]2O)C(O)C(O)C1O)c1ccccc1 (some centres undefined)	7%
11	N[C@@H](Cc1cc(O)c(O)cc1O)C(=O)O	5µM*
12	O=C(CN1CC(c2ccccc2)CC1=O)Nc1ccccc1 (centres undefined)	-2%
13	O=C(Cn1nc(Cc2cccnc2)c2ccccc2c1=O)N1CCC2(CC1)OCCO2	9%
14	O=C1NC(=S)NC(=O)C1=Cc1cccc2cc3ccccc3cc12	-19%[11.4 µM]
15	CC(=O)NBr	-5%
16	Cc1ccccc1C1=NCC(=O)N(CC(=O)NCc2ccco2)c2sc3c(c21)CCCC3	?
17	CCOc1cc2[nH]c(=S)n(CCCC(=O)N3CCC4(CC3)OCCO4)c(=O)c2cc1OCC	-10%
18	O=c1[nH]c2c(c(=O)n1C1CCCCC1)CCC2	6%
19	N[C@H](Cc1ccccc1)c1nn[nH]n1	2%[11.4 µM]
20	Nc1ccccc1O.O.O=C(O)[C@H]1[O][Sb][O][C@H]1C(=O)O	-6%[11.4 µM]
21	CC(N)C(O)c1ccc(O)c(O)c1 (centres undefined)	0%&-23%
22	CCCc1cc2c(n1CCO)C(C)C1CN(C(=O)c3ccccc3)C(C)(C(=O)OC)C21 (centres undefined)	-20%
23	C[C@H]1CC[C@@H]2[C@@H](C)[C@H]3[C@H](C[C@H]4[C@@H]5CC=C6CC(O[C@@H]7O[C@H](CO)[C@H](O)[C@H](O[C@@H]8O[C@H](CO)[C@@H](O)[C@H](O)[C@H]8O)[C@H]7O[C@H]7O[C@@H](C)[C@H](O)[C@@H](O)[C@H]7O)CC[C@]6(C)[C@H]5CC[C@]34C)N2C1 (some centres undefined)	7%
24	CC(=O)OC1CC(OC(C)=O)[C@]2(C)C(CC(OC(C)=O)[C@]3(C)C2CC[C@@]2(C)C(c4ccoc4)C(=O)C4O[C@]432)C1(C)C (some centres undefined)	5%
25	CN1CC[C@@]2(CCCN(C(=O)c3csnn3)C2)C1	-11%
26	CN(C)C(=O)Oc1ccc(-c2nnco2)cc1	-1%
27	CCN1CCN(Cc2ccc(C)cc2)CC1	-4%
28	CN(C)C(=O)Cl	0%
29	Cc1c([C@@H](C)[C@H]2NC[C@H](C)C[C@@H]2O)ccc2c1C[C@@H]1[C@H]2CC=C2C[C@@H](O)CC[C@@]21C	8%[11.4 µM]
30	Cc1ccc2c(c1N)C(=O)c1ccccc1C2=O	-2%

# 4 structures already listed, ordered by molecular weight, low to high.
item	compound	HSD17B inh
19	N[C@H](Cc1ccccc1)c1nn[nH]n1	2%[11.4 µM]
10	N#CC(O[C@@H]1OC(COC2OC(CO)C(O)C(O)[C@@H]2O)C(O)C(O)C1O)c1ccccc1 (some centres undefined)	7%
7	O=C1c2ccccc2C(=O)N1Cc1nc2ccccc2c(=O)n1-c1ccc(Br)cn1	-5%
17	CCOc1cc2[nH]c(=S)n(CCCC(=O)N3CCC4(CC3)OCCO4)c(=O)c2cc1OCC	-10%

# (further entries)
item	compound	HSD17B inh
31	CCS(=O)(=O)N1CCCC(C(=O)N2CCC3(CC2)OCCO3)C1 (centres undefined)	6%
32	O=C1NC(=O)C(Cc2cccs2)C(=O)N1	-2%
33	O=NN1CCCCC1	4%
34	Cc1cc(OCC(=O)O)c2c3c(c(=O)oc2c1)CCCC3	32µM*
35	CCOC(=O)/C=C1\Nc2ccccc2SC1=O	32µM*
36	O=C(Oc1ccccc1)N1CCC2(CCCN(C(c3ccccc3)c3ccccc3)C2)CC1	-5%
37	CC1=CCCC2C1(C)CCC(C)C2(C)CC/C(C)=C/C[n+]1cn(C)c2c(N)ncnc21 (centres undefined)	1%
38	CC(C)c1cc2c(c(O)c1O)[C@]1(C(=O)O)CCCC(C)(C)C1CC2 (some centres undefined)	25µM*
39	C[N+](C)(C)CC#CCOC(=O)Nc1cccc(Cl)c1	-5%
40	CC(C)=C[C@H]1[C@@H](C(=O)OCc2cc3c(cc2Cl)OCO3)C1(C)C	8%[11.4 µM]
41	C[C@@H](Cc1ccc2c(c1)OC(C(=O)O)(C(=O)O)O2)NC[C@H](O)c1cccc(Cl)c1	-6%
42	COc1ccc(OC)c(C2=NOC(C(=O)N3CCC4(CC3)OCCO4)C2)c1 (centres undefined)	?
43	Clc1cccc(Cl)c1	-4%
44	CC(=O)N1CN2CN(C(C)=O)CC(C(=O)c3ccc(Br)cc3)(C2)C1	13%
45	CCOC(=O)N1CCC(NC(=O)CCc2nc(C3=CCN(C)CC3)no2)CC1	3%
46	CCN(CCCl)Cc1ccccc1Br	-3%
47	CC12CN3CC(C)(CN(C1)C3c1cccs1)C2O (centres undefined)	0%
48	O=c1[nH]c(N2CCN(Cc3ccc4c(c3)OCO4)CC2)nc2c1CCC2	2%
49	CCCCCCC(C)(C)c1ccc([C@@H]2C[C@H](O)CC[C@@H]2CCCO)c(O)c1	36%[activator]
50	COc1ccc(CCn2c(O)c(C=NCCCO)c(=O)[nH]c2=O)cc1OC	0%
51	COc1cc(CN2CCN(C(=O)COc3ccccc3)CC2)cc(OC)c1OC	2%
52	CCCC1=C(C(=O)OCC)C2(C(=O)Nc3ccccc32)C(C#N)=C(N)O1 (centres undefined)	8%
53	O=S(=O)(O)/C(=C\c1ccccc1)c1ccccc1 (tested in a mixture with another compound)	3%[11.4 µM]
54	CN(C)c1ccc(N=Nc2ccccc2)cc1	-11%
55	CCN(CC)C(=O)N[C@@H]1C[C@H]2c3cccc4[nH]cc(c34)C[C@@H]2N(C)C1	0%&2%[25.6 µM]
56	C[C@@](Br)(C(=O)O)[C@H](Br)C(=O)O	-1%[11.4 µM]
57	c1ccc2c(c1)CCCC2	2%
58	O=C1C2CCCN2C(c2ccncc2)N1c1ccc(Cl)c(Cl)c1 (centres undefined)	2%
59	O=C(NCC(c1cccnc1)N1CCN(c2ccccc2)CC1)Oc1ccccc1 (centres undefined)	10%
60	CCOC(=O)c1c(C)n(CCN2CCN(C)CC2)c2ccc(OC)cc12	3%
61	CCOC(=O)C1=C(N)Oc2cc(C)oc(=O)c2C12C(=O)N1c3c(cccc32)C(C)=CC1(C)C (centres undefined)	-7%
62	O=C(O)C(O)(c1ccc(-c2ccccc2)cc1)c1ccc(-c2ccccc2)cc1	3%[11.4 µM]
63	Oc1cc(Cl)ccc1Cl	-3%
64	O=Cc1ccccc1	2%
65	COc1ccccc1N1CCN(Cc2ccccc2F)CC1	1%
66	Cc1nc2ccccc2c(=O)n1-c1ccc(F)cc1	-4%
67	CC12CCCCC1=NC(c1ccc(Br)cc1)N2O (centres undefined)	8%
68	COc1ccc2c(c1)C13CCCC[C@@H]1C(C2)N(C)CC3 (some centres undefined)	5%[25.6 µM]
69	CNC(=O)O/N=C/C(C)(C)SC	2%
70	O=c1[nH]c(=O)n(Cc2ccco2)c(O)c1C=NCc1ccco1	-15%
71	CCCCn1c(O)c(C(CC)=NCCN2CCCCC2)c(=O)[nH]c1=O	-4%
72	COc1ccccc1N=C1SCCCN1C	-16%
73	Nc1ccc(Cl)c(Cl)c1	-3%
74	CN1CCN(c2ccc3ccccc3n2)CC1	-9%&-14%
75	CC(C)[C@H](CO)Nc1nc(Nc2cccc(Cl)c2)c2ncn(C(C)C)c2n1	32µM*
76	COc1cccc(N2C(=O)NC(=O)C3(Cc4cc(C)ccc4N(C)C3)C2=O)c1 (centres undefined)	-18%
77	COc1ccccc1N1CCNCC1	-3%&-2%
78	COc1ccccc1CN1CCN(C(=O)COc2ccccc2)CC1	-12%
79	N[C@H](CP(=O)(O)O)C(=O)O	7%
80	CC(N=Cc1c(O)[nH]c(=O)[nH]c1=O)c1ccccc1 (centres undefined)	-3%
81	N#CC1=C(N)Oc2c(c(=O)oc3ccccc23)C1c1ccc(OC(=O)N2CCOCC2)cc1 (centres undefined)	-3%
82	O=C(O)C(=O)Cc1ccc2c(c1)OCO2	-21%[11.4 µM]
83	C=CC(C)=O	-2%
84	CCOC(=O)C1C(=O)N(C)C2(C)CC1c1cc(OC)ccc1O2 (centres undefined)	19%
85	CNc1ccccc1C(=O)O	32µM*
86	C/C=C(\C)C(=O)OC1CC(OC(C)=O)[C@@]2(C(=O)OC)COC3C2[C@@]12CO[C@](O)(C(=O)OC)C2[C@](C)(C12OC1(C)C1CC2OC2OC=C[C@]21O)C3O (some centres undefined)	-4%
87	O=[N+]([O-])c1cc(O)c(O)c([N+](=O)[O-])c1	-23%
88	CC1(C)N(O)C(c2ccc(C(=O)O)cc2)=[N+]([O-])C1(C)C	?
89	Clc1ccc(C(c2ccc(Cl)cc2)n2cc[n+](C[C@@H](OCc3ccc(Cl)cc3Cl)c3ccc(Cl)cc3Cl)c2)cc1	?
90	O=C(C1CCCO1)N1CCC2(CC1)OCCO2 (centres undefined)	8%

# Remaining list, next part
item	compound	HSD17B inh
91	CCn1cc(C(=O)O)c(=O)c2cc3c(cc21)OCO3	?
92	[N-]=[N+]=NCC(=O)c1c[nH]c(=O)[nH]c1=O	5%[11.4 µM]
93	Cc1nn(Cc2ccccc2Cl)c(Cl)c1C(=O)OCC(=O)NCc1ccco1	13%
94	Cn1cc(C(=O)c2ccccc2)c2ccccc21	-1%
95	COCCOC(=O)C1=C(N)OC(C)=C(C(=O)OC)C12C(=O)Nc1ccccc12 (centres undefined)	-9%
96	COc1cc(C)c(CN2CCN(c3ccccc3)CC2)cc1C	0%
97	Cc1c2ccncc2c(C)c2c1[nH]c1ccccc12	?
98	O=[N+]([O-])CCO	4%
99	O=c1c2ccccc2[nH]c(=S)n1-c1ccc2c(c1)OCO2	1%
100	O=c1cccc2n1CC1CC2CN(Cc2cccc(Cl)c2Cl)C1 (centres undefined)	-1%
101	CCC(=NCc1ccc2c(c1)OCO2)c1c(O)n(C2CCCCC2)c(=O)[nH]c1=O	-20%
102	CC(=O)Oc1c(C)cccc1C(=O)O	20µM*
103	Cc1cc(N2C(=O)C3CCCN3C2c2cccc(Cl)c2)no1 (centres undefined)	2%
104	CN(C)CCN=Cc1c(O)n(-c2cccc(C(F)(F)F)c2)c(=O)[nH]c1=O	11%
105	CP(=O)(O)CCCN	8%&-12%&-3%
106	Oc1cc(Cl)c(Cl)c(Cl)c1Cl	-4%
107	CCCCn1c(O)c(C(C)=Nc2ccc(C(=O)O)cc2)c(=O)[nH]c1=O	1%
108	Cc1nc2ncnn2c(C)c1CCC(=O)N1CCC2(CC1)OCCO2	0%
109	Cc1ccc2c(c1)C1CN(C)CCC1N2C(=O)Cn1nnc(-c2ccccc2F)n1 (centres undefined)	17%
110	O=C1N(CN2CCOCC2)c2ccccc2C1(O)c1c[nH]c2ccccc12 (centres undefined)	3%
111	COc1ccc2[nH]c(C)c(CCN3CCC(=O)C(C)C3C)c2c1 (centres undefined)	2%
112	CC1(C)C(O)CC(=O)[C@]2(C)C1CC(=O)[C@]1(C)C2CC[C@@]2(C)C(c3ccoc3)OC(=O)C3O[C@@]321 (some centres undefined)	0%
113	Cn1nc(-c2ccc(OCC(=O)N3CCN(Cc4ccccc4)CC3)cc2)c2ccccc2c1=O	-10%
114	CC(=O)C1=C(C)OC(N)=C(C(=O)OC(C)C)C12C(=O)Nc1ccccc12 (centres undefined)	-1%
115	CC(C)(C)c1ccc(O)c(C[N+](C)(C)C)c1	6%[11.4 µM]
116	CCC(C(=O)N1CCC2(CC1)OCCO2)c1ccccc1 (centres undefined)	2%
117	Nc1ccccc1C(=O)OC1CSC1	32µM*
118	O=C(O)CSCC(=O)O	1%[11.4 µM]
119	COc1ccc2c(c[n+](C)c3c4cc5c(cc4ccc23)OCO5)c1OC	25µM*
120	CN(C)c1ccc(N)cc1	8%
121	C[C@H](N)c1cccc(Cl)c1Cl	6%
122	CN1CCN(Cc2nc3ccccc3n2C)CC1	6%
123	COc1ncccc1C(=O)NCC(CC(=O)O)c1ccccc1 (centres undefined)	-7%
124	N[C@@H](Cc1c[nH]c2ccccc12)c1nnc(SCc2ccc(F)cc2)o1	-18%
125	COc1ccc(-n2c(O)c(C(C)=NCCN3CCNCC3)c(=O)[nH]c2=O)cc1	2%
126	C[C@@H]1O[C@H](C[N+](C)(C)C)C[C@H]1O	-7%
127	CN(C)P1(N(C)C)=NC(C(F)(F)F)=NC(C(F)(F)F)=N1	5%
128	CCN1C(=O)c2ccccc2Sc2ccc(C(=O)N3CCC4(CC3)OCCO4)cc21	-1%
129	C[N+]1([O-])[C@H]2CC[C@H]1CC(OC(=O)[C@@H](CO)c1ccccc1)C2 (some centres undefined)	3%[11.4 µM]
130	N=c1n(CCO)c2ccccc2n1Cc1ccccc1	10%
131	COc1ccc(S(=O)(=O)NCc2ccc(C(=O)N3CCC4(CC3)OCCO4)cc2)cc1	-4%
132	CC(c1ccc(F)cc1)n1cc(C(=O)NCc2ccc3c(c2)OCO3)nn1 (centres undefined)	-5%
133	Nc1ccccc1	-2%
134	O=C(O)c1cc(Cl)ccc1Cl	-1%
135	Cc1ccc2cccc(OC(=O)N(C)c3ccccc3)c2n1	-6%
